From PubChem BioAssay
2A Renilla = FMDV 2A StopGo reporter, Renilla signal; hit rate 0.32% among 120,000; AID 1745857; HEK cells with a luciferase reporter of 2A StopGo recoding; Potency, µM (highest dose often 57.5 µM), for inactives: at the highest dose signal change, negative = less light; active means well fitted falling curve with a large enough effect; inconclusive means small, poorly fitted or top-dose-only effect; inactive means no such curve, though single readings can be large or run the other way; further: nearly all actives have a fitted effect of over 55% in size; overnight with compound
2A firefly = lowers the firefly signal of an FMDV 2A StopGo reporter. HEK cells with a luciferase reporter of 2A StopGo recoding. Potency, µM (top dose mostly 57.5 µM), inactives show at the highest dose signal change, negative = less light. hit rate 0.23% among 120,000. AID 1745856; active = well fitted falling curve with a large enough effect; inconclusive = small, poorly fitted or top-dose-only effect; inactive = no such curve, though single readings can be large or run the other way; further: nearly all actives have a fitted effect of over 60% in size; overnight with compound
The depositor's hits bear a star; [ ] = another dose, or the depositor's remark. On the % scale 0 is the no-effect control and ±100 the full control effect; potency means the concentration at half of the fitted maximal effect. Only part of the results is shown. The share of hits here may be higher or lower than overall.

How did O=C(NCc1coc(-c2cccs2)n1)c1cccc(C(F)(F)F)c1 do in these assays?
2A Renilla: 23.1%; 2A firefly: 24.1%

Results for O=C(Nc1ccccc1C(F)(F)F)C1CC1(c1ccccc1)c1ccccc1 (stereo unspecified) ?
2A Renilla: -3.2%; 2A firefly: 6.9%

What do the screens show for `CCOC(=O)N1CCc2c(sc(NCc3sccc3C)c2C(=O)Nc2ccccc2OCC)C1`?
2A Renilla: 12.9%; 2A firefly: -20.4%

How did Cc1ccc(-c2nc(S(=O)(=O)c3ccc(C)cc3)c(N3CCCCCC3)o2)cc1 do in these assays?
2A Renilla: 41.0%[activator]; 2A firefly: 0.0%

Results for CN1CCN(C(=O)c2c(NC(=O)c3ccccc3Cl)sc3c2CCC(C(C)(C)C)C3)CC1 (stereo unspecified) ?
2A Renilla: 13.9%; 2A firefly: 0.3%

What do the screens show for `CCCc1cc(=O)[nH]c(SCc2noc(-c3ccc(F)cc3)n2)n1`?
2A Renilla: -6.9%; 2A firefly: 4.7%

How did C#CCN1CCC(C(=O)NC2CCN(C(=O)C3CCCCC3)CC2)CC1 do in these assays?
2A Renilla: 5.6%; 2A firefly: 2.2%

What do the screens show for `Cc1ccc(CNC(=O)CCCn2c(C)c3cnn(-c4ccccc4)c(=O)c3c2C)cc1`?
2A Renilla: -3.8%; 2A firefly: 151.4%[activator]

How did CC(=O)c1cc(Cl)ccc1OC(=O)c1ccc(C)cc1 do in these assays?
2A Renilla: 17.0%; 2A firefly: 3.4%

Results for CCc1ccc(NC(=O)c2nc(S(C)(=O)=O)ncc2N(Cc2ccccc2)Cc2ccco2)cc1 ?
2A Renilla: -4.3%; 2A firefly: -1.6%

What do the screens show for `COc1ccc(CCNC(=O)CSc2cn(CCNC(=O)c3cccc(C(F)(F)F)c3)c3ccccc23)cc1OC`?
2A Renilla: inconclusive; 2A firefly: inconclusive

How did Cc1cccc2c(=O)cc(C(=O)N3CCOC34CCN(C)CC4)oc12 do in these assays?
2A Renilla: -19.5%; 2A firefly: -24.9%

Results for Cc1nc(/C=C/C(=O)N2CCCC2)cs1 ?
2A Renilla: 37.4%; 2A firefly: 109.9%[activator]

How did CCc1ccccc1NC(=O)CCn1cccn1 do in these assays?
2A Renilla: 7.8%; 2A firefly: -2.2%

How did Cc1ccc(C)c(C(NC(=O)c2cccc(Cl)c2)c2cccnc2)c1 (stereo unspecified) do in these assays?
2A Renilla: 24.2%; 2A firefly: 1.1%

What do the screens show for `Cc1ccc(C)c(-n2c(C)nc3c(cnn3-c3ccc(F)cc3)c2=O)c1`?
2A Renilla: inconclusive; 2A firefly: -21.7%

Results for N#Cc1ccccc1Cn1c(=O)n(CCCCC(=O)NCc2ccc3c(c2)OCO3)c(=O)c2ccccc21 ?
2A Renilla: -9.7%; 2A firefly: -8.3%

How did CC(=O)NN1C(=O)c2ccccc2NC12CCCCC2 do in these assays?
2A Renilla: -13.5%; 2A firefly: 0.0%

Results for Cc1ccc(NC(=O)Cn2c(=O)n(CCC(=O)NCCc3ccccc3)c(=O)c3ccccc32)cc1 ?
2A Renilla: -14.6%; 2A firefly: -17.6%

What do the screens show for `COC(=O)c1cc(Cl)ccc1N`?
2A Renilla: -12.0%; 2A firefly: 3.5%

What do the screens show for `O=C(Cc1ccccc1)Nc1c(C(=O)Nc2ccccc2F)oc2ccccc12`?
2A Renilla: -1.6%; 2A firefly: 9.6%

Results for Cc1ccc2c(c1)C(=O)OC(C(=O)Nc1ncc(Cc3ccccc3)s1)C2 (stereo unspecified) ?
2A Renilla: -8.0%; 2A firefly: -8.8%

Results for CC1CCc2c(sc(NC(=O)c3cc(-c4ccc(Br)cc4)on3)c2C(N)=O)C1 (stereo unspecified) ?
2A Renilla: -11.4%; 2A firefly: -15.7%

Results for CCOc1ccc(NC(=O)Cn2c(=O)n(CCCCCC(=O)NCc3ccccc3)c(=O)c3sccc32)cc1 ?
2A Renilla: 17.6%; 2A firefly: -6.4%

Results for COc1ccccc1NC(=O)C(C)n1nc(C(=O)O)c2ccccc2c1=O (stereo unspecified) ?
2A Renilla: -17.5%; 2A firefly: -4.6%

How did O=C(CN1CCN(C(=O)CCc2ncc(-c3c(F)cccc3F)o2)CC1)Nc1ccccc1Cl do in these assays?
2A Renilla: inconclusive; 2A firefly: inconclusive

What do the screens show for `O=C(NCCN1CCCCC1)C(=O)Nc1cccc2[nH]ccc12`?
2A Renilla: -4.1%; 2A firefly: 0.0%

What do the screens show for `CC(C)(C)OC(=O)N1CCC(c2c(C(=O)NCCN3CCOCC3)cnn2-c2ccccc2)CC1`?
2A Renilla: -8.0%; 2A firefly: -17.8%

What do the screens show for `CC1CCc2c(C(=O)Nc3cccc(Br)c3)csc2C1` (stereo unspecified)?
2A Renilla: 3.2%; 2A firefly: 195.3%[activator]

Results for CC1C(=O)CC[N+](C)(C)C1C (stereo unspecified) ?
2A Renilla: 18.4%; 2A firefly: 1.8%

Results for COc1ccc(COc2ccc3c(=O)c(-c4ccc(OC)c(OC)c4)c(C)oc3c2)cc1 ?
2A Renilla: -0.9%; 2A firefly: 7.9%

How did Cc1ccc(CNC(=S)NNC(=O)C(C)(C)O)cc1 do in these assays?
2A Renilla: 0.1%; 2A firefly: 1.4%

What do the screens show for `CN(CC(=O)NCc1ccccc1Cl)S(=O)(=O)c1ccc2c(c1)c(=O)n(C)c(=O)n2C`?
2A Renilla: -7.8%; 2A firefly: -11.8%

How did CCCCNC(=O)C(CC)Sc1nc2ccccc2c(=O)n1Cc1ccco1 (stereo unspecified) do in these assays?
2A Renilla: 3.7%; 2A firefly: -21.7%

What do the screens show for `O=C(CCc1ncc(-c2ccccc2)o1)NCCc1ccccc1`?
2A Renilla: 7.0%; 2A firefly: 3.0%

Results for Cc1oc(-c2ccccc2)nc1CN(C)CC(=O)N(C)C ?
2A Renilla: 0.1%; 2A firefly: 23.2%

Results for CC1=C(C#N)C(NC(=O)CC(C)C)(C(F)(F)F)C(=O)N1 (stereo unspecified) ?
2A Renilla: 7.1%; 2A firefly: -7.7%

What do the screens show for `Cc1ccc(-c2cnc(C3CC3)o2)cc1S(=O)(=O)Nc1ccc(F)cc1Cl`?
2A Renilla: 353.5%[activator]; 2A firefly: 0.7%

How did Cc1cccn2c(=O)c3cc(C#N)c(=O)n(-c4nnc(SCc5ccc(F)cc5)s4)c3nc12 do in these assays?
2A Renilla: 9.3%; 2A firefly: 0.9%

How did COc1ccc(CN(C(=O)c2cc(=O)c3ccc(C)cc3o2)C2CCS(=O)(=O)C2)cc1OC (stereo unspecified) do in these assays?
2A Renilla: 3.1%; 2A firefly: 9.6%

Results for CCCC(=O)N(c1ccc2oc(C)c(C(C)=O)c2c1)S(=O)(=O)c1ccc(CC)cc1 ?
2A Renilla: 90.1%[activator]; 2A firefly: inconclusive

Results for O=C(Nc1cccc(Br)c1)Nc1ccc2c(c1)N(C(=O)c1ccccc1)CC2 ?
2A Renilla: 14.1µM*; 2A firefly: inconclusive

Results for CCOC(=O)c1cc2c(=O)n3ccccc3nc2n(CC(C)C)c1=NC(=O)C(C)(C)Oc1ccc(Cl)cc1 ?
2A Renilla: 5.3%; 2A firefly: -11.8%

How did C(=N\N=C1c2ccccc2-c2ccccc21)/c1ccccc1 do in these assays?
2A Renilla: 10.6%; 2A firefly: 29.1%

What do the screens show for `O=C(O)Cc1ccc(Cl)nc1`?
2A Renilla: 12.8%; 2A firefly: 8.2%

Results for COC(=O)c1cc(C)nc2c1c(=O)nc(SCc1cccc(C)c1)n2C1CC1 ?
2A Renilla: 80.1%[activator]; 2A firefly: -19.2%

How did CC(C)c1ccc(NC(=O)CCNS(=O)(=O)c2cccc3nsnc23)cc1 do in these assays?
2A Renilla: 93.0%[activator]; 2A firefly: 14.6%

Results for Cc1ccccc1OCC(=O)Nc1nnc(S(=O)(=O)N(C)c2ccccc2)s1 ?
2A Renilla: -14.8%; 2A firefly: -15.8%

What do the screens show for `Nc1nonc1C(=O)NCCNCc1cccc(Cl)c1Cl`?
2A Renilla: 5.2%; 2A firefly: -6.3%

How did CCN1CCN(c2cc(C)c3cc(NC(=O)c4ccc(OC)c(OC)c4)ccc3n2)CC1 do in these assays?
2A Renilla: 24.4%; 2A firefly: 17.3%

How did COc1cc2c(c(OC)c1)C(=O)O[C@H](C)C[C@@H]1O[C@H]1CCCCC(=O)C2 do in these assays?
2A Renilla: -14.7%; 2A firefly: -15.5%

How did Cn1c(=O)c2c(nc(NC3CCCCC3)n2Cc2ccccc2Br)n(C)c1=O do in these assays?
2A Renilla: 10.0%; 2A firefly: 1.6%

Results for CCOC(=O)C1CCN(C(=O)c2cc3ccc4cccnc4c3[nH]2)CC1 ?
2A Renilla: 14.6%; 2A firefly: 52.3%[activator]

What do the screens show for `Cc1ccc(-n2c(C)nnc2SC(C)C(=O)Nc2cc(C)on2)cc1` (stereo unspecified)?
2A Renilla: -4.6%; 2A firefly: 2.2%

Results for CCOc1c(Cl)cc(Cl)cc1CNCc1cccnc1 ?
2A Renilla: 0.9%; 2A firefly: 0.3%

Results for Cc1cc(C)nc(NC(=O)Nc2ccc(F)c(Cl)c2)c1 ?
2A Renilla: -2.6%; 2A firefly: 97.6%[activator]

What do the screens show for `COc1ccccc1NC(=O)CCN1CCCCC1`?
2A Renilla: -12.2%; 2A firefly: 0.0%

How did CC(C)(C)c1ccc(C(CNC(=O)c2cc(-c3cccs3)on2)N2CCOCC2)cc1 (stereo unspecified) do in these assays?
2A Renilla: -8.7%; 2A firefly: -9.2%

Results for O=C(NC1(c2ccccc2)CCC1)c1cccc(C(F)(F)F)c1 ?
2A Renilla: -3.3%[1.06 µM]; 2A firefly: -1.1%

What do the screens show for `Cc1ccc(CNC(=O)COCc2cc(-c3cccs3)on2)cc1`?
2A Renilla: 56.8%[activator]; 2A firefly: 0.0%

What do the screens show for `O=C(Oc1ccc2c(=O)c(Oc3ccccc3Br)coc2c1)c1cccs1`?
2A Renilla: 8.9%; 2A firefly: 5.9%

How did COc1ccccc1C(=O)OC1CCN(C)CC1 do in these assays?
2A Renilla: -4.1%; 2A firefly: -2.1%

How did COc1ccc(CCn2c3c(c(=O)[nH]c2=O)C(NC(=O)c2ccccc2)(C(F)(F)F)C(=O)N3)cc1OC (stereo unspecified) do in these assays?
2A Renilla: 215.1%[activator]; 2A firefly: 149.5%[activator]

What do the screens show for `CCCN(CCC)C(=O)c1cc2c(=O)n3cccc(C)c3nc2s1`?
2A Renilla: 36.1%[activator]; 2A firefly: 33.9%

What do the screens show for `CCOc1ccc(-c2nc(CNC(=O)Nc3ccc(C)c(C)c3)c(C)o2)cc1`?
2A Renilla: 12.0%; 2A firefly: 33.7%[activator]

How did COc1cc2c(cc1OC)C(COc1ccc3c(C)cc(=O)oc3c1)N(C(=O)c1ccc(C)cc1)CC2 (stereo unspecified) do in these assays?
2A Renilla: 0.9%; 2A firefly: -18.9%

Results for CCc1ccc(NC(=O)Cn2c(=O)n(-c3ccccc3)c(=O)c3ccc(C(=O)NCc4ccc5c(c4)OCO5)cc32)cc1 ?
2A Renilla: -5.1%; 2A firefly: -6.4%

How did O=C(NCC(c1cccnc1)N1CCc2ccccc21)c1ccc(Cl)cc1 (stereo unspecified) do in these assays?
2A Renilla: inconclusive; 2A firefly: inconclusive

Results for CCN(CC)c1nc2c(c(=O)n(C)c(=O)n2C)n1CC(=O)C12CC3CC(CC(C3)C1)C2 ?
2A Renilla: -13.1%; 2A firefly: -14.8%

Results for CCn1nc(C(=O)Nc2cc(Cl)ccc2N2CCCCC2)c2ccccc2c1=O ?
2A Renilla: -10.4%; 2A firefly: -11.1%

Not a retest: entries from further up.
Results for O=C(NC1(c2ccccc2)CCC1)c1cccc(C(F)(F)F)c1 ?
2A Renilla: -3.3%[1.06 µM]; 2A firefly: -1.1%

What do the screens show for `Cc1ccc(CNC(=O)COCc2cc(-c3cccs3)on2)cc1`?
2A Renilla: 56.8%[activator]; 2A firefly: 0.0%

What do the screens show for `O=C(Oc1ccc2c(=O)c(Oc3ccccc3Br)coc2c1)c1cccs1`?
2A Renilla: 8.9%; 2A firefly: 5.9%

How did COc1ccccc1C(=O)OC1CCN(C)CC1 do in these assays?
2A Renilla: -4.1%; 2A firefly: -2.1%

How did COc1ccc(CCn2c3c(c(=O)[nH]c2=O)C(NC(=O)c2ccccc2)(C(F)(F)F)C(=O)N3)cc1OC (stereo unspecified) do in these assays?
2A Renilla: 215.1%[activator]; 2A firefly: 149.5%[activator]

What do the screens show for `CCCN(CCC)C(=O)c1cc2c(=O)n3cccc(C)c3nc2s1`?
2A Renilla: 36.1%[activator]; 2A firefly: 33.9%

What do the screens show for `CCOc1ccc(-c2nc(CNC(=O)Nc3ccc(C)c(C)c3)c(C)o2)cc1`?
2A Renilla: 12.0%; 2A firefly: 33.7%[activator]

How did COc1cc2c(cc1OC)C(COc1ccc3c(C)cc(=O)oc3c1)N(C(=O)c1ccc(C)cc1)CC2 (stereo unspecified) do in these assays?
2A Renilla: 0.9%; 2A firefly: -18.9%

Results for CCc1ccc(NC(=O)Cn2c(=O)n(-c3ccccc3)c(=O)c3ccc(C(=O)NCc4ccc5c(c4)OCO5)cc32)cc1 ?
2A Renilla: -5.1%; 2A firefly: -6.4%

Later entries:
Results for Cc1nc2c(-c3ccccc3)c(C)nn2c(C)c1CCC(=O)N1CCN(c2ccccc2)CC1 ?
2A Renilla: -5.7%; 2A firefly: -10.1%

Results for Cc1c(-c2ccccc2)oc2c(C(=O)N(C)C3CCCCC3)cccc2c1=O ?
2A Renilla: 80.2%[activator]; 2A firefly: -27.2%

What do the screens show for `COc1ccccc1NC(=O)CC(C)S(=O)(=O)c1ccc2c(c1)CCN2C(=O)C1CC1` (stereo unspecified)?
2A Renilla: 11.0%; 2A firefly: 2.5%

Results for Cc1ccc2nc(-c3ccccc3)cc(C(=O)N3CCN(CC(=O)N4CCOCC4)CC3)c2c1 ?
2A Renilla: 63.8%[activator]; 2A firefly: 71.7%[activator]
